# Screening results from PubChem.
# CtBP-E1A blk: qHTS Assay for Inhibitors of the CtBP/E1A Interaction | CtBP / adenovirus E1A interaction (AlphaScreen) | AlphaScreen GST-E1A/His-CtBP binding, 1536-well; active compounds read low; control for the full effect not named in the record | activity change, % (no concentration beside the values) | 340,000 compounds, 0.49% hits | AID 651724, 2012; in the data active means activity change below about -65%; inconclusive means about -30% to -65%; inactive means above about -30%; note: % is set by controls: 0 for no effect and ±100 for the full control effect
#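 Homogeneous bead-based format: GST-tagged E1A captured on glutathione donor beads, His-tagged CtBP on nickel acceptor beads; compounds precede bead addition by 2 h at 37 °C.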
# TRPV1 PAM: HTS Assay for Compounds that Act as Potentiators of the Vanilloid Receptor 1; Transient receptor potential cation channel subfamily V member 1 (Homo sapiens), Q8NER1; TRPV1-expressing cells, Fluo-8 calcium influx, capsaicin EC20 potentiation; host cell line not named in the record; control for the full effect not named in the record; potentiation, % at 8.33 µM; 320,000 compounds, 0.02% hits; active means potentiation above 80%; inconclusive means 30% to 80%; inactive means below 30%; note: 0% is about no effect
# Target sequence (Q8NER1 whole entry, looked up): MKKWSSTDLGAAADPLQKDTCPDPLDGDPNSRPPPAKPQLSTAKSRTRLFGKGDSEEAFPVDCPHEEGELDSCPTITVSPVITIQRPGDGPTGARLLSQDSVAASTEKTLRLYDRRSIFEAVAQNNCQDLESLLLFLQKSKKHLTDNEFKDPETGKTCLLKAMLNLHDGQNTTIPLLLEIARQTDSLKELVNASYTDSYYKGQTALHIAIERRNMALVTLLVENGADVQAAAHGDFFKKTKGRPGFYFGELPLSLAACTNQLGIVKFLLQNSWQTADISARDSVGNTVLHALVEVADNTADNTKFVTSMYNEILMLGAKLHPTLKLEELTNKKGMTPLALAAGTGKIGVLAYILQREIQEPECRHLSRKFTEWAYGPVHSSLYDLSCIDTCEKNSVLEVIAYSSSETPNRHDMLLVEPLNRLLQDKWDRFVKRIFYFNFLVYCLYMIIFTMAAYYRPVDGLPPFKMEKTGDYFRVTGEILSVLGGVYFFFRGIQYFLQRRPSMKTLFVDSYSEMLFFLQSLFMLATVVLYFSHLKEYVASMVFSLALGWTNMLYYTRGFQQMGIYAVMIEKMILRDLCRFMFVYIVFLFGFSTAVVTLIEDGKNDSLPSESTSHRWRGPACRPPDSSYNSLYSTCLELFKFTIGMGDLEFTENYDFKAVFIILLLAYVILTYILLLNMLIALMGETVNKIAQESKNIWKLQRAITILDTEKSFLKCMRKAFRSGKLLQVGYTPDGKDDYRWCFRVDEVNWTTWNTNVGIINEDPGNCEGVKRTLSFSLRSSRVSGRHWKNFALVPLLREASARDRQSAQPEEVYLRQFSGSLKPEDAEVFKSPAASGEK
#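 TRPV1-expressing cells were cultured overnight at 35.5C and loaded with Fluo-8 calcium dye for 40 to 90 min at room temperature. After a 10 s baseline, compound was added and calcium influx was read kinetically for 3 min (ex 480/em 520 nm).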
# TRPML1 agonist: qHTS for Agonists of the Human Mucolipin Transient Receptor Potential 1 (TRPML1) | TRPML1-expressing cells, Ca2+ dye fluorescence, FDSS; host cell line not named in the record; reference of the full effect not given here | Mucolipin-1 (Homo sapiens), Q9GZU1 | AID 624414, 2012 | 410,000 compounds, 0.12% hits | activation, % (no concentration beside the values); in the data active = activation above about 50%; inconclusive = about 30% to 50%; inactive = below about 30%; note: 0% is about no effect; the text of the record puts the active cut at 80%
#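 Kinetic FDSS Ca2+ read in Tet-induced TRPML1-DL cells (ABD Ca8 dye plus quencher, 45-90 min RT loading): baseline, then compound, then 110 s agonist window; EC80 agonist 54-4 at 4uM final added afterwards for a 110 s antagonist window.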
# TRPML1 blocker: qHTS for Inhibitors of the Human Mucolipin Transient Receptor Potential 1 (TRPML1); Mucolipin-1 (Homo sapiens), Q9GZU1; AID 624415, 2012; TRPML1-inducible cells, Ca2+ dye fluorescence, FDSS; active compounds read low; inhibition of EC80 agonist-evoked calcium signal; 390,000 compounds, 0.02% hits; activity change, negative = inhibition, % (no concentration beside the values); in the data active means activity change below about -50%; inconclusive means about -30% to -50%; inactive means above about -30%;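 note: stimulus is agonist 54-4 at its EC80 concentration; % is set by controls: 0 for no effect and ±100 for the full control effect; compound concentration not given in the record; the text of the record puts the active cut at -80%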
#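 Tet-induced TRPML1-DL cells loaded with Ca8 no-wash calcium dye were read kinetically on FDSS. Compound addition was followed by EC80 agonist 54-4 (4 uM final); inhibition was read over 110 s.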
# Six1-Eya2 inh: qHTS Assay for Inhibitors of the Six1/Eya2 Interaction | 360,000 compounds, 0.56% hits | AlphaScreen GST-Six1/His-Eya2 binding, biochemical; active compounds read low; control for the full effect not named in the record | Homeobox protein SIX1 (Homo sapiens) + Protein phosphatase EYA2 (Homo sapiens), … | AID 651725, 2012 | activity change, % (concentration not given with the values); in the data active = activity change below about -65%; inconclusive = about -30% to -65%; inactive = above about -30%; note: % is set by controls: 0 for no effect and ±100 for the full control effect
#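 GST-Six1 + His-Eya2 (5X stock: 250/500 nM); Tris pH 8.0, 300 mM NaCl, 0.05% BSA, 0.02% Tween 20; GSH donor/Ni acceptor beads; 1 h 37 °C dark; AlphaScreen readout.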
# D2 PAM: Beta-Arrestin HTS for Positive Allosteric Modulators of the Human D2 Dopamine Receptor: Potentiators; D(2) dopamine receptor (Homo sapiens), P14416; DiscoveRx D2 beta-arrestin cells, luminescence, 90 min; 100% = 57 uM dopamine signal; potentiation, % (concentration not given with the values); 360,000 compounds, 0.23% hits; active = potentiation of 50% or more; inconclusive = 30% to 50%; inactive = 30% or less;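 note: tested on top of an EC20 dose of dopamine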
#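 PathHunter D2 cells, attached overnight at 37 deg C, received compound in DMSO plus dopamine at EC20 (50 nM final) for 90 min at 37 deg C. Beta-arrestin recruitment was read as luminescence after 1 h with detection reagent at ambient temperature.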
# * marks the source's active call; other numbers are inactive results; ? = inconclusive; . = no result given.
1	CCOC(=O)c1ccccc1NC(=O)COC(=O)C(CC(C)C)NC(N)=O (stereo not given)
2	COC(=O)CN1C(=O)CSc2ncccc21
3	NNCCc1ccccc1
4	CC(c1n[nH]c(=S)n1-c1ccccc1)N1CCCCC1 (stereo not given)
5	COc1ccc(C(=O)CCNc2cccc(Cl)c2)cc1
6	COc1ccc(/C=C2\N=C(SC)N(C)C2=O)cc1
7	O=C1SC(SCc2ccccc2)=N/C1=C\c1ccco1
8	COc1ccc(-c2c(-c3cc(OC)cc(OC)c3)n(C)c3ccc(-c4ccc5c(c4)OCCO5)cc23)cc1
Assay by compound,1,2,3,4,5,6,7,8
CtBP-E1A blk,5,5,-1,6,-7,-16,-4,-4
TRPV1 PAM,3,-3,0,5,-13,.,13,.
TRPML1 agonist,0.3,-0.5,0.4,0.2,0.0,-0.6,-0.1,-0.5
TRPML1 blocker,-9,-9,26,31,-15,6,-8,5
Six1-Eya2 inh,-2,0,2,0,3,1,-21,-3
D2 PAM,5,10,-16,2,-6,8,-9,-12

9	COc1ccc(C(=O)Nc2c(C)ccc3nsnc23)cc1[N+](=O)[O-]
10	CC(CNc1ccc([N+](=O)[O-])c2cccnc12)Nc1c([N+](=O)[O-])cc(C(F)(F)F)cc1[N+](=O)[O-] (stereo not given)
11	CCNC(=S)N1CCCC(C(N)=O)C1 (stereo not given)
12	COC(=O)c1ccc(Cn2c(C)c(C(=O)NCc3cccs3)sc2=O)o1
13	Cc1ccc(C(=O)N2CCOCC2)cc1Cl
14	O=C(CSc1ccc(-c2ccc(-n3cccn3)cc2)nn1)Nc1ccc([N+](=O)[O-])cc1
15	COCC(=O)N1CCC(Oc2ccc(C(=O)NC(C)c3csc(C)n3)cc2)CC1 (stereo not given)
16	CC(C)(C)C(CN1CCCC1)OC(=O)c1ccccc1 (stereo not given)
Assay by compound,9,10,11,12,13,14,15,16
CtBP-E1A blk,1,-26,6,-6,-1,-1,5,14
TRPV1 PAM,-7,11,-4,.,2,2,-16,0
TRPML1 agonist,-0.3,2.9,-0.1,-1.1,-0.6,-0.1,-0.7,-1.0
TRPML1 blocker,-19,-1,-9,.,13,-13,5,17
Six1-Eya2 inh,-2,?,8,-7,-1,-4,4,0
D2 PAM,-9,?,-5,4,12,-3,-7,-13

17	Cc1c(Cl)cnc(NC(=O)CSc2nnc(C)n2Cc2ccccc2)c1Cl
18	N/C(=N\OC(=O)COc1ccc(Br)cc1Cl)c1ccncc1
19	Cc1ccc(NC(=O)C2CC(=O)Nc3ncnn32)cc1Cl (stereo not given)
20	COc1ccc(C2c3c(ncn(Cc4ccco4)c3=N)Oc3ccc4ccccc4c32)cc1 (stereo not given)
21	CC(C)(C)c1ccc(C(=O)NCCCNC(=O)c2ccco2)cc1
22	COc1ccc2c(c1)O[C@H]1c3ccc(O)cc3OC[C@@H]21
23	CC(=O)c1ccc(N2C(=NC(=O)C(C)C)SC3CS(=O)(=O)CC32)cc1 (stereo not given)
24	O=C1CSC(=S)N1N=Cc1c[nH]c2ccc(Br)cc12
Assay by compound,17,18,19,20,21,22,23,24
CtBP-E1A blk,0,21,-15,4,-4,1,7,-8
TRPV1 PAM,7,2,3,5,13,.,-2,.
TRPML1 agonist,0.4,1.7,.,3.5,-0.9,.,-0.2,0.6
TRPML1 blocker,-3,32,.,20,2,.,6,-5
Six1-Eya2 inh,1,12,5,-16,4,11,0,?
D2 PAM,-9,?,-7,7,-4,-8,-5,0

25	COc1cccc2cc(C(=O)N3C(C)CCCC3C)c(=O)oc12 (stereo not given)
26	O=C(Cc1ccccc1)Nc1ncccc1Cl
27	O=C(CCc1c[nH]c2ccccc12)OCc1cccc(C(F)(F)F)c1
28	CCCCCc1ccc(S(=O)(=O)NCCc2ccncc2)cc1
29	CC(O)CNc1nc(N)[nH]c(=O)c1N=Nc1ccccc1 (stereo not given)
30	Cc1ccc2cccc(S(=O)(=O)N3CCN(c4ccccc4F)CC3)c2n1
31	CCC(=O)c1ccc(N2CCOCC2)c(F)c1
32	COc1cccc(C2=NO[C@@H]3C(=O)N(c4ccc5c(c4)OCCO5)C(=O)[C@H]23)c1OC
Assay by compound,25,26,27,28,29,30,31,32
CtBP-E1A blk,-4,-8,3,9,-30,-5,1,9
TRPV1 PAM,11,.,.,-4,.,14,.,-3
TRPML1 agonist,-0.6,0.8,-0.7,0.6,-0.6,1.6,0.7,-1.3
TRPML1 blocker,-9,-11,25,2,-10,28,-3,-14
Six1-Eya2 inh,-17,3,-2,-2,?,-17,9,0
D2 PAM,-10,-1,6,4,2,8,-2,27

33	O=C(N/N=C/c1cccc(OC(=O)N2CCOCC2)c1)c1cccs1
34	O=C(NCC1OCCCN1S(=O)(=O)c1cc(F)ccc1F)C(=O)NC1CCCCC1 (stereo not given)
35	Cc1ccc(S(=O)(=O)NCC(=O)N(CC(=O)NCc2ccc(F)cc2)CC2CCCO2)cc1 (stereo not given)
36	Cn1nccc1C(=O)N1CCN(c2ncccn2)CC1
37	CCCCNC(=S)N(C)/N=C/c1ccc(OCC(=O)Nc2ccc(OC)cc2)c(OC)c1
38	COc1ccc(-n2c(C)nc3cc(C(=O)N4CCOCC4)ccc32)cc1
39	O=C(NCc1ccccn1)/C(=C/c1ccco1)NC(=O)c1ccccc1
40	COc1cccc(Nc2nc3ccccc3n2C(C)C)c1
Assay by compound,33,34,35,36,37,38,39,40
CtBP-E1A blk,6,7,-1,0,-2,7,-4,0
TRPV1 PAM,3,8,7,0,-3,14,6,-12
TRPML1 agonist,3.3,-0.1,0.6,0.3,3.4,-0.6,1.3,1.7
TRPML1 blocker,-17,-15,-18,-6,-10,26,-14,2
Six1-Eya2 inh,-10,6,2,7,-11,6,-19,-3
D2 PAM,-5,-4,-9,2,19,-6,-9,-16

# Shown with values under each structure: entries from further up.
# Each structure is followed by: CtBP-E1A blk, TRPV1 PAM, TRPML1 agonist, TRPML1 blocker, Six1-Eya2 inh, D2 PAM
29	CC(O)CNc1nc(N)[nH]c(=O)c1N=Nc1ccccc1 (stereo not given)
  -30, ., -0.6, -10, ?, 2
30	Cc1ccc2cccc(S(=O)(=O)N3CCN(c4ccccc4F)CC3)c2n1
  -5, 14, 1.6, 28, -17, 8
31	CCC(=O)c1ccc(N2CCOCC2)c(F)c1
  1, ., 0.7, -3, 9, -2
32	COc1cccc(C2=NO[C@@H]3C(=O)N(c4ccc5c(c4)OCCO5)C(=O)[C@H]23)c1OC
  9, -3, -1.3, -14, 0, 27
33	O=C(N/N=C/c1cccc(OC(=O)N2CCOCC2)c1)c1cccs1
  6, 3, 3.3, -17, -10, -5
34	O=C(NCC1OCCCN1S(=O)(=O)c1cc(F)ccc1F)C(=O)NC1CCCCC1 (stereo not given)
  7, 8, -0.1, -15, 6, -4
35	Cc1ccc(S(=O)(=O)NCC(=O)N(CC(=O)NCc2ccc(F)cc2)CC2CCCO2)cc1 (stereo not given)
  -1, 7, 0.6, -18, 2, -9
36	Cn1nccc1C(=O)N1CCN(c2ncccn2)CC1
  0, 0, 0.3, -6, 7, 2
37	CCCCNC(=S)N(C)/N=C/c1ccc(OCC(=O)Nc2ccc(OC)cc2)c(OC)c1
  -2, -3, 3.4, -10, -11, 19

# The results go on:
41	CCCCOc1ccc(-c2ncc(N)cn2)cc1
42	N#Cc1ccccc1NC(=O)CSC1=Nc2ccccc2C2CC=NN12 (stereo not given)
43	CCOc1ccc(OCCC(=O)OCC(=O)c2c(N)n(CC(C)C)c(=O)n(C)c2=O)cc1
44	CCOC(=O)CSc1n[nH]c(NC(=O)c2cccc(C(F)(F)F)c2)n1
45	CC(C)(C)c1ccccc1NC(=O)NC1CCN(Cc2c(F)cccc2Cl)CC1
46	NS(=O)(=O)c1ccc(CNC(=O)c2cc(-c3cccs3)nc3ccccc23)cc1
47	O=C(COc1ncnc2ccccc12)Nc1ccc(Cl)c([N+](=O)[O-])c1
48	CN(C)S(=O)(=O)c1cccc(NC(=O)C2CCCN(C(=O)c3ccc(Cl)cc3)C2)c1 (stereo not given)
Assay by compound,41,42,43,44,45,46,47,48
CtBP-E1A blk,.,-19,-5,5,2,-6,-9,2
TRPV1 PAM,8,6,.,.,19,1,-8,.
TRPML1 agonist,-0.3,-0.5,-0.7,-0.1,0.6,.,0.4,0.0
TRPML1 blocker,-5,0,16,-3,-9,.,21,5
Six1-Eya2 inh,-5,-12,-6,-1,-1,-1,-2,-5
D2 PAM,-19,-6,-7,-15,-3,2,-12,-22

49	O=c1c2ccccc2cnn1Cc1n[nH]c(=S)n1-c1cc(Cl)cc(Cl)c1
50	CN(C)c1ccc(-c2nnn(CC(=O)Nc3ccc4c(c3)OCCO4)n2)cc1
51	Cc1ccc(NC(=O)C2(C)CCN2C(=O)CCC2CCCC2)cc1C (stereo not given)
52	O=C(NCc1ccccc1Cl)C1CCN(S(=O)(=O)c2ccc(N3CCCC3=O)cc2)CC1
53	CON1C(=O)C(=O)N(OC)C2CCCCC21 (stereo not given)
54	Cc1ccc2nc(SCC(=O)Nc3cccc([N+](=O)[O-])c3)[nH]c2c1
55	Cc1ccc(S(=O)(=O)N2CCCCC2)cc1NC(=O)COC(=O)c1cc[n+]([O-])cc1
56	CN1CCN(NC(=O)Nc2ccc(Br)cc2Cl)CC1
Assay by compound,49,50,51,52,53,54,55,56
CtBP-E1A blk,-5,6,10,6,-1,-10,-3,0
TRPV1 PAM,7,-9,.,-17,1,10,-5,4
TRPML1 agonist,1.5,0.3,-0.8,1.2,0.5,0.7,0.3,1.4
TRPML1 blocker,-2,15,.,8,-6,-1,-5,-8
Six1-Eya2 inh,6,-2,9,1,1,-8,-12,-16
D2 PAM,-15,-5,-9,-4,-1,-11,-7,-11

57	O=C(CSc1n[nH]c(-c2ccco2)n1)Nc1ccc(Br)cc1
58	O=C(NCCN1CCN(C(=O)c2cccs2)CC1)c1cccs1
59	Cc1cccc(NC(=O)c2cccc(S(=O)(=O)N(C)c3ccccc3)c2)n1
60	Cc1nnc(SCC(=O)N2CCN(C(=O)c3ccco3)CC2)n1-c1ccccc1
61	O=C(c1cccs1)N1CCCC(c2ccccc2)C1 (stereo not given)
62	O=C(N/C(=C\c1cccc([N+](=O)[O-])c1)C(=O)N1CCOCC1)c1ccco1
Assay by compound,57,58,59,60,61,62
CtBP-E1A blk,-6,31,0,2,10,12
TRPV1 PAM,10,-10,-8,1,-9,3
TRPML1 agonist,2.1,-0.3,2.6,-0.3,-0.9,-1.2
TRPML1 blocker,8,-9,16,-7,-5,16
Six1-Eya2 inh,-8,19,-4,2,5,0
D2 PAM,-2,-16,12,-5,3,-3
